Compound activity from PubChem.
CapD inh: CapD enzyme inhibition | z-score (no concentration beside the values) | purified CapD enzyme, fluorescence intensity read-out; hits give low values; some hits fall short of the stated cut | 0.23% of 140,000 active;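 active = z-score under -4 in either of two replicates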;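 note: stock transfer was 100 nL into about 40 µL; score is relative to mean and spread of the plate; one replicate is shown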
AID504770: growth inhibitors of E. coli YBA685 in a screen for V. cholerae RctB (chromosome II replication) inhibitors; E. coli YBA685 rctB-dependent plasmid, OD600 growth, 3 h; hits give low values; 0.27% of 130,000 active; z-score (test concentration not listed);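 active = z-score under -2 on both plates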;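 note: wells of about 30 µL received 100 nL stock; score is relative to mean and SD of the test wells; the first replicate is given; strong numbers were not always called active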
Active calls of the source: *; / = no result given.

canonical_smiles	CapD inh	AID504770
Oc1ccc(Nc2nc(Cl)nc(NCc3ccco3)n2)cc1	0.56	/
Cc1ccc(-c2noc(CNC(=O)CSc3ccccc3)n2)cc1	-1.1	2
O=C1NC(c2ccc(C(F)(F)F)cc2)=CCN1c1ccccc1O	0.29	0.05
CCC(=O)c1ccc(OC(=O)N(C)c2ccccc2)cc1	0.045	1.5
O=C(O)CSCc1cccs1	/	-0.75
CC(C)(Oc1ccc(Cl)cc1)C(=O)NN	0.23	0
C=CCn1nnnc1SCC(=O)Nc1ccc(OC)cc1	/	-0.2
Cc1ccc(Nc2nc(-c3c(C)nc4ccccn34)cs2)c(C)c1	35	-0.35
CCN1CCN(C(c2ccc(OC)cc2)C(O)C(=O)c2c[nH]c3ccccc23)CC1 (stereo not drawn)	/	-0.75
Cc1cc(C)c(C#N)c(SCCC#N)n1	/	-0.8
CCOC(=O)Nc1sc2c(c1C#N)CCCC2	-0.12	-0.75
OC1(c2ccc(F)cc2)CN(c2ccccc2)C2=[N+]1CCS2 (stereo not drawn)	0.4	/
O=[n+]1c2c(n([O-])c3cc(Br)ccc31)CCCC2	0.085	0.05
Cc1c(C)n(CC(O)CN2C(=O)c3ccccc3S2(=O)=O)c2ccccc12 (stereo not drawn)	-0.22	/
O=S(=O)(NCc1nc2ccccc2[nH]1)c1ccc(F)c(F)c1	1.2	/
O=c1cccccc1NC1CCCCC1	-2.3	0.6
COc1cc(C(F)(F)F)c(C(=O)N(C)c2ccc(Cl)cc2)cn1	-0.52	-0.7
CC12COC3(C#N)CC1CCC32C (stereo not drawn)	0.62	-0.15
CC1(C)Cc2ccccc2C(=NCCC(=O)O)N1	/	-0.8
CCCCSc1nc2c(c(C(F)(F)F)c1C#N)CCC2	6.5	-0.5
CN1CCN(c2nc(-c3ccccc3)cc(-c3ccc(Br)cc3)n2)CC1	1.1	-0.85
COc1ccc(Br)cc1/C=C1\N=C(c2ccc(Cl)c([N+](=O)[O-])c2)OC1=O	0.29	/
O=[N+]([O-])/C(=C\Nc1ccc(Oc2ccccc2)cc1)S(=O)(=O)c1ccccc1	-0.5	/
c1coc(-c2nnc(SCc3nc4ccccc4[nH]3)o2)c1	0.49	/
COc1nc(Nc2ccc(Cl)cc2)nc(NC2CCCCC2)n1	-0.19	2.1
COc1ccccc1Oc1ccc(C(F)(F)F)cc1NC(=O)NC(=O)c1c(F)cccc1Cl	-0.71	/
CC(Oc1ccc(Br)cc1)C(=O)N=c1sccn1C (stereo not drawn)	/	-0.3
CNC(=O)CN(Cc1ccccc1)S(=O)(=O)c1ccccc1	-0.12	0.3
COc1ccc(CN(C)C(=O)CN2CCCCC2C)c(OC)c1OC (stereo not drawn)	/	-0.05
CC(CCc1ccccc1)NC(=O)c1ccccc1C(=O)O (stereo not drawn)	0.36	-0.2
Cn1nc(C(=O)N(Cc2ccco2)C2CCCCC2)c2c1-c1ccccc1OC2	0.34	-1.9
O=C(CSc1nnc2c(n1)Nc1ccccc1S2)N1CCN(Cc2ccccc2)CC1	/	0.5
CCOC(=O)CSc1nc2sc(C(=O)N3CCc4ccccc4C3)c(C)c2c(=O)n1CCc1ccccc1	-1.3	/
COC(=O)c1ccsc1NC(=O)CC1SC(N)=NC1=O (stereo not drawn)	/	-0.4
O=C(Nc1c2c(nn1-c1ccc(Cl)cc1)CSC2)c1cc2ccccc2oc1=O	-0.14	/
Cc1sc2nc(Cc3ccccc3)n(CC(=O)Nc3cccc(C(F)(F)F)c3)c(=O)c2c1C	-0.78	/
CC(=O)Nc1ccc(Oc2nc(-c3ccccc3)ns2)cc1	-1.5	0.15
COc1ccc(NC2CCCCC2NS(=O)(=O)c2ccccc2)cc1 (stereo not drawn)	-0.14	0.15
Cc1c(O)ccc(C(=O)Cc2ccc(F)cc2)c1O	-1	-0.05
COc1ccc(/C=C/C(=O)Nc2c(C(N)=O)oc3ccccc23)cc1OC	/	-0.05
CCNC(=O)C1CCCN1C(=O)OCC(C)C (stereo not drawn)	/	-0.05
O=C(NNC(=O)c1ccc2nccnc2c1)OCc1cc2c(cc1[N+](=O)[O-])OCO2	-1.1	/
COc1ccc(N2CCN(S(=O)(=O)c3cc(Br)cc4c3N(C(C)=O)C(C)C4)CC2)cc1 (stereo not drawn)	-0.15	0.85
Cc1cccc(C(=O)NNC(=O)OCCN2CCN(Cc3cc4ccccc4o3)CC2)c1O	7.3	/
COc1ccccc1C1(C#N)CCOCC1	0.49	-0.2
Cc1[nH]ncc1-c1nsc(Nc2ccccc2)n1	-0.16	/
COc1ccc(S(=O)(=O)N(C(=O)C(C)C)c2ccc3oc(=O)sc3c2)cc1	-2.3	0.8
COc1ccc(-n2nnc3c(=O)n(Cc4cccc(C(F)(F)F)c4)cnc32)cc1	-0.2	1.1
Cc1nc(N=C(N)N)nc2cc3c(cc12)OCO3	/	-0.7
NC(=O)NN=C1CSc2sc(=S)sc2SC1	-0.32	/
CCNc1nc(-c2ccc(OC)cc2OC)cs1	/	-0.05
CCCCN1/C(=C2/SC(=S)N(CC)C2=O)Sc2ccc(OC)cc21	-0.09	/
COc1ccc(-c2nc3ncc(-c4ccccc4)nn3c2C)cc1	-0.39	/
CSc1nc(N)nc(C2COc3ccccc3O2)n1 (stereo not drawn)	-0.3	-1.1
COCCCNC(=S)Nc1ccc(F)cc1	-0.66	/
Nc1nncn1C(=O)CCCN1C(=O)c2ccccc2C1=O	-0.22	-0.95

Next section.
canonical_smiles	CapD inh	AID504770
O=C(Nc1cc(-c2ccccc2)[nH]n1)c1ccccc1	-0.41	/
CCOc1cc(C=C2C(=O)N(C)C(=O)N(C)C2=O)ccc1OCCBr	-0.16	/
CC1CC(C)CN(C(=O)Cc2c(C(=O)O)[nH]c3ccc(Cl)cc23)C1 (stereo not drawn)	11	-0.75
CCc1c(C#N)c(SCC(=O)c2ccc3c(c2)OCO3)nc2c1C(=O)CC(C)(C)C2	0.18	-0.95
N#CC(Cc1ccccc1)Sc1nnc(-c2cccs2)n1Cc1ccccc1 (stereo not drawn)	/	-0.2
CC1CCCN(CC(=O)O)C1 (stereo not drawn)	/	-0.25
CCOC(=O)C1CCN(Cc2ccccc2)CC1	-0.62	-0.85
CCCCN(C)S(=O)(=O)c1cc2c3c(c1)CCC(=O)N3CCC2	/	0.85
Cc1ccc(S(=O)(=O)NCc2ccc(C(=O)NCCCN3CCN(C)CC3)cc2)cc1	0.085	-0.5
Cc1cc(-c2onc(C)c2C(=O)NNC(=O)Cc2ccc(F)c(F)c2)no1	0.46	/
COc1ccc(C2CC(=O)C3=C(C2)NC(C)=C(C(=O)OC2CCCC2)C3c2cccc([N+](=O)[O-])c2)cc1OC (stereo not drawn)	-0.27	/
COc1ccc(-n2ncc3c(=O)n(CC(=O)NC(C)C)cnc32)cc1	/	-0.1
O=[N+]([O-])c1ccccc1SC1CC2C(c3ccc(F)cc3)Nc3c(ccc(Cl)c3Cl)C2C1Cl (stereo not drawn)	0.24	/
Cc1ccc(CNC(=O)C2c3ccccc3Oc3ccccc32)cc1	0.17	-0.3
CC1=C(C(=O)Nc2ccccc2)Oc2ccccc2N1	0.35	-0.5
Cn1cnnc1Sc1ccc(Cl)cc1NC(=O)C1CCCCC1	/	0.2
CN(C)C=Nc1ccc(OCc2ccccc2)cc1	/	0
Fc1cnc(N2CCOCC2)nc1N1CCc2ccccc21	3.2	-1.4
CCOc1cc(C=C2C(=O)NC(=S)NC2=O)ccc1OCCOc1ccc(C(C)CC)cc1 (stereo not drawn)	-0.19	0.8
CC1(C)C2CCC1(CS(=O)(=O)Nc1cc(C(=O)N3CCOCC3)ccc1N1CC3CC(C1)c1cccc(=O)n1C3)C(=O)C2 (stereo not drawn)	0.35	/
O=C(CSC1=NC(=O)C(Cc2ccccc2)C(=O)N1)Nc1nc(-c2ccc(Br)cc2)cs1 (stereo not drawn)	-0.25	/
CCCCSc1nc(O)c(CCC(C)C)c(=O)[nH]1	/	-0.9
COc1cc(/C=C2\SC(=Nc3cc(C)cc(C)c3)NC2=O)cc([N+](=O)[O-])c1O	-1.2	/
C=CCn1c(SCC(=O)Nc2ccc(OC)cc2)nc2cc3ccccc3cc2c1=O	0.68	1.9

Nothing new here: three of the compounds above.
canonical_smiles	CapD inh	AID504770
CC1(C)C2CCC1(CS(=O)(=O)Nc1cc(C(=O)N3CCOCC3)ccc1N1CC3CC(C1)c1cccc(=O)n1C3)C(=O)C2 (stereo not drawn)	0.35	/
O=C(CSC1=NC(=O)C(Cc2ccccc2)C(=O)N1)Nc1nc(-c2ccc(Br)cc2)cs1 (stereo not drawn)	-0.25	/
CCCCSc1nc(O)c(CCC(C)C)c(=O)[nH]1	/	-0.9

Later entries:
canonical_smiles	CapD inh	AID504770
CCC(=O)Nc1sc(C(=O)N2CCCCC2)c(C)c1C#N	0.21	1.1
Cc1ccc(S(=O)(=O)/N=C(/c2ccccc2)N2CCOCC2)cc1	10	-0.85
CC(=O)N1CCN(S(=O)(=O)c2cccc(C(=O)OCc3csc(-c4ccccc4)n3)c2)CC1	/	-0.65
CCc1ccc(CNC(=O)c2ccc3c(c2)ncn3C2CCCC2)cc1	-0.06	-0.35
COc1ccc(NC(=O)CC(C)=O)cc1	-0.2	/
OC(CN1c2ccccc2Sc2ccccc21)Cn1nnc2ccccc21 (stereo not drawn)	0.23	-0.35
CC1Cc2cc(C(=O)CSc3nnc(-c4ccco4)n3-c3ccccc3)ccc2N1S(C)(=O)=O (stereo not drawn)	/	-1.1
Cc1cc(NC(=O)CCN2C(=O)C3C4C=CC(C4)C3C2=O)c(C)cc1Br (stereo not drawn)	0.46	-0.45

7 records picked at random from the list so far:
canonical_smiles	CapD inh	AID504770
COc1ccc(NC(=O)CC(C)=O)cc1	-0.2	/
CC1Cc2cc(C(=O)CSc3nnc(-c4ccco4)n3-c3ccccc3)ccc2N1S(C)(=O)=O (stereo not drawn)	/	-1.1
Cc1cc(NC(=O)CCN2C(=O)C3C4C=CC(C4)C3C2=O)c(C)cc1Br (stereo not drawn)	0.46	-0.45
CCC(=O)Nc1sc(C(=O)N2CCCCC2)c(C)c1C#N	0.21	1.1
CC(=O)N1CCN(S(=O)(=O)c2cccc(C(=O)OCc3csc(-c4ccccc4)n3)c2)CC1	/	-0.65
Cc1ccc(S(=O)(=O)/N=C(/c2ccccc2)N2CCOCC2)cc1	10	-0.85
CCc1ccc(CNC(=O)c2ccc3c(c2)ncn3C2CCCC2)cc1	-0.06	-0.35

Carrying on.
canonical_smiles	CapD inh	AID504770
CCC(C)(NC(=O)c1ccccn1)C(=O)NC1CCCC1 (stereo not drawn)	-0.6	-0.2
CCOC(=O)c1[nH]c(C)c(Cc2ccc(OCC)cc2)c1C	/	-0.25
Cc1ccc(S(=O)(=O)NCCc2csc(C)n2)cc1	0.57	-0.2
Brc1cccc(C=NN2CCN(c3ccccn3)CC2)c1	-0.26	1.2
CSc1nn2c(=O)c(C)nnc2s1	0.28	0.6
C=Cn1ccc(CCC)c1-c1cccs1	2.5	-0.8
O=C(NCc1cccnc1)C1=CCN(S(=O)(=O)c2ccccc2)CC1	0.79	0.25
NNC(=O)c1cc(-c2ccccc2)nc2ccccc12	1	-0.75
CCn1c(C(=O)O)c(CC(=O)N(C)c2ccc(Br)cc2)c2ccccc21	0.085	/
O=C(CSc1ncn[nH]1)Nc1ccccc1	0.21	0.25
Cc1cc(C)c(NCc2ccccc2O)c(C)c1	-0.36	-0.95
CCOC(=O)c1csc(NC(=O)c2ccccc2)n1	0.24	-0.9
S=C(c1cccs1)N1CCOCC1	-0.26	0.45
O=C(O)CCSc1nc2ccccc2n1C1CCCCC1	0.46	-0.6
CCc1ccc(OCCCC(=O)Nc2ncn[nH]2)cc1	-0.075	-0.4
COc1c(Cl)cc(Cl)cc1C1N(Cc2ccc(Cl)cc2)CCN1Cc1ccc(Cl)cc1	-0.3	/
COc1cc(/C=C2\N=C(c3ccc(OC)c([N+](=O)[O-])c3)OC2=O)ccc1OC(C)=O	-0.73	/
COC(=O)c1ccccc1S(=O)(=O)NC(=O)c1ccccc1	-0.13	1.1
CCOC(=O)c1cc2cc(OC(F)(F)F)ccc2[nH]1	2.3	/
C/C(=N\NC(=O)C1CC1)c1ccccc1O	/	0
O=C(/C=C/c1cn(-c2ccccc2)nc1-c1cccs1)NC1CCC(O)CC1 (stereo not drawn)	80	-0.35
O=c1[nH]c(CN2CCCC2)nc2c(Br)cc(Br)cc12	/	0.2
O=C(c1ccccc1NS(=O)(=O)c1ccc(Cl)cc1)N1CCC(c2nc(-c3ccncc3)no2)CC1	0.05	/
COc1cc(OC)nc(Sc2ccccc2C(=O)O)n1	-0.24	/
N#Cc1ccccc1CSCCNc1ncnc2c1oc1ccccc12	/	0.7
CCOC(=O)C1CCN(C(=O)COC(=O)c2ccc(N(C)C)cc2)CC1	/	-1.9
COc1ccccc1CCOC(=O)NC(CSCc1ccccc1)C(=O)Nc1ccc2ccccc2c1 (stereo not drawn)	0.005	/
COc1ccc(CNC(=O)c2cc(Nc3ccccc3OC)nc3ccccc23)cc1	0.31	-0.45
O=C(CSc1n[nH]c(=O)n1C1CC1)NC1CCCC1	/	-0.55
O=C(O)Cc1ccccc1C(=O)N1CCN(C/C=C/c2ccccc2)CC1	0.53	/
CCOC(=O)c1cn2nc(Oc3ccccc3)ccc2n1	2.6	-0.4
Cc1cc2nc(COC(=O)C(C)C)cc(=O)n2o1	0.42	0.35
CN1c2ccccc2C(=O)/C(=C\Nc2ccc(F)cc2)S1(=O)=O	0.45	/
CNC(=O)COC(=O)c1c(-c2c(F)cccc2Cl)noc1C	/	-0.15
O=C(O)CSc1c2c(nc3cc(C(=O)Nc4ccc(F)c(Cl)c4)ccc13)CCCC2	4.9	1.4
Cc1ccc2scc(CC(=O)O)c2c1	/	1.4
